Source: PubChem
LASV entry inh – blocks Lassa virus binding to or entry into cells; Lassa virus pseudotype entry inhibition, cell reporter; control for the full effect not named in the record; Potency, µM (series often up to 37.9 µM), inactives show at the highest dose activity change, negative = inhibition, actives largely listed as inhibitors; AID 540256; 1.2% of 300,000 active; active means well fitted inhibition curve with a large enough effect; inconclusive means small, poorly fitted or top-dose-only effect, or effect the other way; inactive means flat fitted curve, though single readings scatter; tested in HEK293 cells; also: % is scaled to controls: 0 for no effect and ±100 for the full control effect; nearly all actives have a fitted effect of over 50% in size; luciferase read-out
SARS PLpro yeast – SARS-CoV PLP inhibition in yeast; Potency, µM (titrated, usually from 32.9 µM), without a hit: at the highest dose activity, positive = growth rescue; 0.19% of 330,000 active; S. cerevisiae expressing SARS-CoV PLpro, growth rescue; control for the full effect not named in the record; active means well fitted rising curve with a large enough effect; inconclusive means small, poorly fitted or top-dose-only effect; inactive means no such curve, though single readings can be large or run the other way; also: 0% is about no effect; nearly all actives have a fitted effect of over 55% in size; growth read by luminescence after 48 h
Cruzain inh Det – blocks cruzain activity in presence of Triton detergent | P25779 | purified cruzain, Z-FR-AMC fluorescence, 0.01% Triton | Potency, µM, without a hit: max response, negative = inhibition, actives largely listed as inhibitors | 0.43% of 200,000 active | AID 1478;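 also: plate controls were neutral wells for no effect and buffer without enzyme for full effect; nearly all actives have a fitted effect of over 40% in size; top concentration of the series not given in the record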
Target sequence (P25779 123-467 limits assumed): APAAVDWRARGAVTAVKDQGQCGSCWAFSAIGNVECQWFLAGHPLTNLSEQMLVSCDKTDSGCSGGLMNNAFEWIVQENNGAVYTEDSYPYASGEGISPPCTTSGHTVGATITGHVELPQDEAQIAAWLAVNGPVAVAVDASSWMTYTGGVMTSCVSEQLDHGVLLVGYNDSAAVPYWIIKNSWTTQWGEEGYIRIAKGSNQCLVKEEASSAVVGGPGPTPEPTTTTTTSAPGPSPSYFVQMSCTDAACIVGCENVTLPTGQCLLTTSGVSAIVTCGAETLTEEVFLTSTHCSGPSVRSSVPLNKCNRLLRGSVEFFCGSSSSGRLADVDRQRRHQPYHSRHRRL
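Sodium acetate buffer (100 mM, pH 5.5) containing 5 mM DTT and 0.01% Triton X-100 hosted 1.5 nM cruzain and test compound for 15 min at room temperature. Cleavage of 2 uM Z-FR-AMC was then tracked by fluorescence.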
2A StopGo – FMDV 2A StopGo reporter, luciferase signal; human cells with a luciferase reporter of 2A StopGo recoding; control for the full effect not named in the record; Potency, µM (series often up to 57.9 µM), inactives show at the top dose signal change, negative = less light; 1.2% of 410,000 active; AID 1159524; active = well fitted falling curve with a large enough effect; inconclusive = small, poorly fitted or top-dose-only effect; inactive = no such curve, though single readings can be large or run the other way; tested in HEK293T cells; also: % is scaled to controls: 0 for no effect and ±100 for the full control effect; nearly all actives have a fitted effect of over 45% in size; luciferase light after 4 h
RE007 growth inh – less growth of the S. pombe RE007 Vpr strain | S. pombe RE007 Vpr strain, BacTiter-Glo ATP luminescence, 24 h; control for the full effect not named in the record | 0.21% of 360,000 active | Potency, µM (top dose mostly 92.2 µM), for inactives: at the top dose activity change, negative = less growth; active = well fitted falling curve with a large enough effect; inconclusive = small, poorly fitted or top-dose-only effect; inactive = no such curve, though single readings can be large or run the other way;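 also: % is scaled to controls: 0 for no effect and ±100 for the full control effect; nearly all actives have a fitted effect of over 50% in size; the assay follows cell death caused by Vpr and the record does not say whether a fall means rescue or toxicity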
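Fission yeast RE007 carrying one integrated HIV-1 vpr copy, seeded at OD 0.01 in PMG+AL medium with 23 nL pinned compound. Grown 24 h at 30 degrees; viability read by BacTiter-Glo luminescence after 5 min.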
MARV entry inh – Marburg virus entry inhibition. Marburg virus pseudotyped entry inhibition, cell reporter; control for the full effect not named in the record; about a third of the inactives were read at about 46 µM. AID 540276. 1.8% of 300,000 active. Potency, µM (top dose mostly 37.8 µM), inactives show top-dose activity change, negative = inhibition, most hits filed as inhibitors; active = well fitted inhibition curve with a large enough effect; inconclusive = small, poorly fitted or top-dose-only effect, or effect the other way; inactive = flat fitted curve, though single readings scatter; tested in HEK293 cells; about a fifth of its hits are not listed in these tables; also: % is scaled to controls: 0 for no effect and ±100 for the full control effect; luciferase read-out
NS1 inh – blocks influenza NS1 protein function; Potency, µM (top dose mostly 46.1 µM), for inactives: at the top dose activity, positive = more growth; S. cerevisiae slowed by influenza A NS1, growth recovery by OD600; AID 2326; 0.4% of 270,000 active; active means well fitted rising curve with a large enough effect; inconclusive means small, poorly fitted or top-dose-only effect; inactive means no such curve, though single readings can be large or run the other way; also: nearly all actives have a fitted effect of over 50% in size
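Compounds were scored for reversing the slow growth caused by influenza A NS1 in S. cerevisiae, measured by optical density at 600 nm. Assay medium contained 2% galactose at pH 6.0; NS1-free yeast of the same strain were the positive control.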
Cruzain inh noDet – blocks cruzain activity in detergent-free assay. purified cruzain, Z-FR-AMC fluorescence, no detergent. P25779. Potency, µM, for inactives: max response, negative = inhibition, usual class: inhibitors. 2.3% of 200,000 active;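 also: plate controls were enzyme without inhibitor for no effect and buffer without enzyme for full effect; nearly all actives have a fitted effect of over 40% in size; top concentration of the series not given in the record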
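Detergent-free condition (0.00005% Triton X-100) in acetate buffer pH 5.5 with DTT. 1.5 nM enzyme and compound were pre-mixed 15 min, then 2 uM Z-FR-AMC substrate added; reaction progress from fluorescence change between first and third reads (60 s).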
An asterisk follows results filed as active; ? = inconclusive; . = not tested or not shown; & = joins results of further samples; [ ] = another dose, or the depositor's remark. Unless noted, calls follow the shape of the dose curve; as a rule, active = well fitted curve in the direction sought with a large enough effect; inconclusive = small, poorly fitted or top-dose-only effect, or another doubt; inactive = no such curve, though single readings can be large; an effect the other way counts as inactive or inconclusive. Potency is read from the fitted curve at half-maximal effect.

SMILES	LASV entry inh	SARS PLpro yeast	Cruzain inh Det	2A StopGo	RE007 growth inh	MARV entry inh	NS1 inh	Cruzain inh noDet
Cc1cc2cc3c(=O)[nH]c(=O)nc-3n(CC(O)C(O)C(O)CO)c2cc1C (stereo not given)	7%	.	.	-13%	22%	?	.	.
COc1ccc(C2CC(=O)c3cnc(NC(=O)c4cccc(OC)c4)nc3C2)cc1 (stereo not given)	-19%	10%	-2.3%	-10%	-3%	1%	-50%	-2%
O=C(Nc1ccn(Cc2cccc3ccccc23)n1)c1cccnc1	?	-1%	.	?	-5%	?	-4%	.
CC(C)(C)C(=O)OCc1nc(-c2ccc(C(F)(F)F)cc2)cs1	-6%	0%	.	23%	-18%	7%&7%	1%	.
CCc1nnc(NC(=O)C2CCCN2C(=O)NC2CCCCC2)s1 (stereo not given)	-26%	6%	-2.0%	12%	7%	?	3%	6%
COC(=O)c1cc(S(=O)(=O)NCCc2cccc(C)c2)cn1C	-6%[46.1 µM]	3%	.	30%	2%	0%[46.1 µM]	4%	.
CC(C)CNC(=O)COC(=O)c1c2c(nc3ccccc13)CCC2	4%	-15%	.	-3%	22%	2%[46.1 µM]	2%	.
CCOc1ccccc1OCCOCCN1CC(C)OC(C)C1 (stereo not given)	-4%	0%	-2.7%	-2%	-9%	?	-1%	2%
CC1CN(C(=O)N2CCOCC2)CCN1C(=O)N1CCOCC1 (stereo not given)	20%	-1%	.	-9%	2%	?	0%	.
O=C(CC(=O)NN=Cc1ccc2c(c1)CCC2)NN=Cc1ccc2c(c1)CCC2	-6%[46.1 µM]	.	.	-14%	7%	4%	.	.
Cc1cnc(C=NNC(N)=S)c2cccc(N)c12	8.9µM*	.	.	-21%	-1%	7.1µM*	.	.
COc1ccc2[nH]cc(/C=C/c3cc[n+](C)cc3)c2c1	.	1%	.	-7%	?	.	3%	.
Cn1c(/C=N/c2nc3ccccc3[nH]2)nc2ccccc21	-17%	4%	-7.5%	46%[activator]	-4%	-9%	-47%	-12%
CC(C)(C)c1ccc(-c2nnc(SC3CCOC3=O)n2Cc2ccccc2)cc1 (stereo not given)	?	0%	-5.7%	0%	-9%	-1%	2%	?
COc1ccc(Cl)cc1NC(=O)CSC1=Nc2ccccc2C2=NC(CC(=O)NC3CCCCC3)C(=O)N12 (stereo not given)	?	.	-7.0%	?	.	?	.	-7%
O=C(NC1CCCCC1)C1CCN(S(=O)(=O)N2CCOCC2)CC1	-1%	-3%	4.7%	-3%	7%	6%	4%	-6%
O=C(O)c1cc(=O)c2c(Cl)cc(Cl)cc2[nH]1	?	.	-5.4%&3.5%&-8.6%	-15%&-10%&3%&-18%	11%[18.4 µM]	?	-8%	3%&-3%&5%
CC(=O)Nc1ccc(NC(=O)CCn2cnnn2)cc1	.	2%	.	-4%	4%	-1%[46.1 µM]	.	.
Cc1ccc(C(=O)c2cn(CC(=O)NC3CCCCC3)c3nc(C)ccc3c2=O)cc1	-11%[46.1 µM]	.	-0.3%	-23%	.	.	.	-8%
CCn1c(NC(=O)Nc2cccc(C)c2C)cc2sccc21	.	4%	-1.5%	-7%	-6%	.	12%	25µM*
NC(=S)c1cn(C2OC(CO)C(O)C2O)c2ncnc(N)c12 (stereo not given)	.	-2%	.	?	5%	.	1%	.
COC(=O)C(Cc1ccc(O)cc1)NC(=O)CCC(=O)Nc1ccc(S(N)(=O)=O)cc1 (stereo not given)	3%	2%	2.5%	7%	8%	3%	-4%	-6%
CC(=O)N1c2ccc(S(=O)(=O)N3CCCC3C(=O)Nc3ccc(C)cc3)cc2CC1C (stereo not given)	.	-1%	.	?	-1%	.	-2%	.
Cc1ccc(CN2CCN(Cc3ccon3)CC2CCO)cc1 (stereo not given)	-1%	1%	.	-19%	3%	0%[46.1 µM]	3%	.
COc1ccc(CNC(=O)c2ccc3c(c2)CCN3S(=O)(=O)c2ccc(C)cc2)cc1	-27%[46.1 µM]	.	-2.4%	-21%	.	?	.	-26%
N#CCCn1cc(C(=O)Nc2ccc(C(=O)O)cc2)c(-c2cccs2)n1	.	0%	.	-4%	0%	.	9%	.
Cc1cc(C)nc(NC(=S)Nc2ccc(Br)cc2Cl)c1	-1%	1%	.	1%	-8%	-10%[46.1 µM]	.	.
CCOc1ccc(NC(=O)CN(C)C(=O)c2c(C)noc2C)cc1OCC	-8%[46.1 µM]	-4%	.	-2%	10%	?	.	.
CC(=O)c1sc(C(C)(C)C)cc1NC(=O)CCC(=O)O	3%[46.1 µM]	-1%	.	-8%	-3%	16%[46.1 µM]	-6%	.
COc1ccc(C(=O)N/N=C\c2coc3ccc(C)cc3c2=O)cc1	14%	12%	.	-12%	11%	3%	-3%	.
COC(=O)c1[nH]c2cc(OC)ccc2c1NC(=O)CN1CCC(C(N)=O)CC1	-3%	25%	0.6%	0%	4%	7%	2%	-5%
Cc1c(NC(=O)C(C)N2C(=O)c3ccccc3C2=O)c(=O)n(-c2ccccc2)n1C (stereo not given)	3%	2%	3.5%	18%	3%	4%	18%	-12%
O=C(CN1CCN(c2ccc(F)cc2)CC1)Nc1nnc(-c2ccccc2)s1	2%	11%	5.2%	7%	-1%	10%[46.1 µM]	-6%	-17%
Cc1cccc(NCc2n[nH]c(=S)n2-c2ccccc2)c1	.	1%	.	-9%	-17%	.	13%	.
CCOCCCNC(=O)CN1C(=O)COc2ccc(S(=O)(=O)N3CCCC3)cc21	-4%[46.1 µM]	4%	0.3%	-17%&2%	1%	9%&9%[46.1 µM]	-6%	-4%
Cc1cc(C)c(Cn2cnc3ccccc32)c(C)c1	?	-1%	.	-20%	5%	?	-51%	.
CCn1c(CNC(=O)Cc2ccc(OC)cc2)nnc1SCCOc1ccccc1	-25%	0%	1.7%	?	1%	-10%	-4%	30%
COc1cc(NC(=S)N2CCN(Cc3ccccc3)CC2)cc(OC)c1	-5%	-20%	-1.5%	0%	-11%	-8%	4%	-3%
Cc1cccc(C2=NN(c3ccccc3)[C@@H](C(=O)N3CCOC3=O)[C@@H]2c2ccccc2)c1	.	-13%	-1.8%	-19%	-10%	.	.	?
COc1ccc(C(C(=O)NC2CCCCC2)N(C(=O)CCl)c2ccc(OC)cc2)cc1 (stereo not given)	-24%	-12%	2.8%	8.9µM*	7%	-15%	18%	-26%
O=C(c1ccc(N2CCCC2)c([N+](=O)[O-])c1)N1CCN(CCO)CC1	.	-1%	.	-10%	1%	.	7%	.
COc1ccc(C(C)(C)C)cc1NC(=O)c1cncc(Br)c1	-24%	-6%	-4.0%	-20%	5%	-28%	-47%	0%
Cc1cc(-n2nc(C)cc2C)nc(N)n1	28%	-17%	11%	-7%	0%	-1%	3%	2%
CCCNC(=O)c1cccc(COCC(F)(F)F)c1	10%	.	.	6%	-18%	?	.	.
CCCCc1nc2cc(C(=O)NCCc3cnn(C)c3)ccc2o1	-1%	-2%	.	15%	10%	2%	-5%	.

Limited to NS1 inh, for two of the compounds above:
mol | NS1 inh
O=C(Nc1ccn(Cc2cccc3ccccc23)n1)c1cccnc1 | -4%
CC(C)(C)C(=O)OCc1nc(-c2ccc(C(F)(F)F)cc2)cs1 | 1%

Going on with the list.
SMILES	LASV entry inh	SARS PLpro yeast	Cruzain inh Det	2A StopGo	RE007 growth inh	MARV entry inh	NS1 inh	Cruzain inh noDet
CCN(CC)c1ccc(/C=N/NC(=O)c2cc3ccccc3[nH]2)cc1	.	-1%	.	22%	29%	.	-18%	.
CCCCn1c(N)c(N(CCOC)C(=O)c2cc(-c3ccccc3)nc3ccccc23)c(=O)[nH]c1=O	1%	.	.	0%	-1%	-3%	.	.
Cc1cc(OCC(=O)OCC(=O)Nc2cc(C(F)(F)F)ccc2N2CCOCC2)ccc1Cl	.	-17%	-14%	-4%	-6%	0%	-16%	?
Nc1ccc(N=Nc2ccccc2)cc1	?	0%	.	3%	-7%	?	.	.
CC1CN(c2nc3ccccn3c(=O)c2/C=C(\C#N)C(=O)N2CCOCC2)CC(C)O1 (stereo not given)	13%	1%	.	5%	6%	8%[46.1 µM]	4%	.
COc1ccc(C(=O)Nc2cccc(/C=C(\CCC(=O)O)c3nc4ccccc4s3)c2)cc1	.	0%	.	5%	4%	.	8%	.
O=S(=O)(O)CCS	.	.	3.6%	-7%&19%	-13%[18.4 µM]	.	.	-2%
O=C(CN1CCC(O)(c2ccc3c(c2)OCO3)CC1)OC1CCCCC1	2%	0%	-8.8%	-26%	-6%	-3%	1%	0%
CCOC(=O)c1cnc(SCC(=O)Nc2cc(OC)ccc2OC)nc1N	8%	2%	-3.8%	14µM*	6%	?	10%	-2%
CCCNC(=O)N1CCN(c2ncccn2)CC1	0%	23%	-0.3%	-3%	-10%	5%	-8%	14%
COc1ccc(-c2cn3ccccc3n2)cc1	.	-3%	.	-23%	?	.	-3%	.
CCOC(=O)c1c(NC(=O)CSc2nnc(C)c(=O)[nH]2)sc2c1CCC2	10%	-2%	-7.7%	-9%	-11%	-12%	-24%	?
CCC(OC(=O)c1ccco1)C(=O)NCc1ccc(C)cc1 (stereo not given)	44%[14.3 µM]	-2%	-0.4%	17%	1%	14%	-8%	0%
CCOC(=O)c1cccc(Nc2nc(-c3cccnc3)nc3ccccc23)c1	?	-3%	-2.8%	28µM*	-22%	?	9%	21%
CCC(Oc1ccccc1)C(=O)Nc1nnc(C(F)(F)F)s1 (stereo not given)	-9%	-41%	-2.9%	?	-10%	?	-38%	-9%
CC1=NCCN1S(=O)(=O)c1c(C(C)C)cc(C(C)C)cc1C(C)C	?	-1%	.	39%[activator]	6%	?	3%	.
CCCc1cc(C(=O)N2CCCC(C(=O)c3ccc(Cl)cc3)C2)n(C)n1 (stereo not given)	.	1%	.	-15%	-3%	.	-31%	.
CC(=O)Nc1cccc(NC(=O)C2CC(=O)N(C3CCCCC3)C2)c1 (stereo not given)	11%	0%	.	-18%	5%	-15%	1%	.
CS(=O)(=O)N1CCC(Oc2ccccc2C(=O)NC2CCOC2)CC1 (stereo not given)	0%[46.1 µM]	1%	.	-4%	-12%	2%[46.1 µM]	2%	.
